High-throughput results as filed in PubChem.
MT1-MMP act inh: inhibitors of human MT1-MMP activation; 0.061% of 360,000 active; P50281; AID 651647; GFP/RFP ratio change, % at 20 µM; HT1080 RFP-PRO-GFP cells, GFP/RFP ratio fluorescence, overnight; percent of plate control window, DMSO zero;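 active means GFP/RFP ratio change of at least 30% with cell ATP level not reduced by more than half and red fluorescence within 50% of control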; further: strong numbers were not always called active
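Material: RFP-PRO-GFP reporter HT1080 cells. Dosing: single-point 20 µM compound, 1% DMSO. Controls: DMSO and RFP-L50D-GFP cell wells. Timing: cells overnight before dosing, compound overnight, 37 °C, 5% CO2. Measure: GFP/RFP fluorescence ratio.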
UUG fidelity: alters start codon recognition fidelity in yeast. S. cerevisiae UUG-firefly luciferase reporter, luminescence/redox ratio. activity score, % at 18.7 µM. 0.13% of 350,000 active. AID 602363;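 active means replicate mean at a twofold rise or more, about +100% in these data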;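 further: firefly luciferase made from a UUG start codon reports start codon fidelity; reporter light over untreated wells divided by growth signal over untreated wells; some hits fall short of that in this replicate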
MT1-MMP act inh RFP: further read-out of MT1-MMP act inh, marked with its call; RFP signal change, %; measured here: RFP expression control read;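 0 = vehicle wells; hits needed this value within 50% of zero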
* marks the source's active call; other numbers are inactive results; & = joins results of further samples.

SMILES | MT1-MMP act inh | MT1-MMP act inh RFP | UUG fidelity
COc1ccc(Br)cc1/C=N/Nc1ccc(S(=O)(=O)Nc2ccccc2C(=O)O)cc1[N+](=O)[O-] | 15 | 3 | 2
COc1ccc(CN(C)C[C@@H]2OCc3cnnn3CCCC(=O)N([C@@H](C)CO)C[C@H]2C)cc1 | 4 | 4 | -8&-1
Cc1ccc2nc(-c3ccc(C#N)cc3)c(Cc3ccccn3)n2c1 | -6 | 2 | 36
Cc1ccc(C2(c3ccccc3)NC(=O)N(CC(=O)N3CC(=O)Nc4ccccc43)C2=O)cc1C (stereo not given) | 3 | -1 | 8
O=C(NCCOc1ccc(Cl)cc1)C1CC(=O)N(c2ccc3c(c2)OCCO3)C1 (stereo not given) | 1 | 5 | -10
S=C(c1ccc2c(c1)OCO2)N1CCN(c2cccc(Cl)c2)CC1 | -5 | -9 | -24
CC1CCN(S(=O)(=O)c2ccc(Cl)s2)CC1 | -2 | 2 | 3
O=C(CCC(=O)Nc1ccccc1Cl)NNC(=O)COc1ccc([N+](=O)[O-])cc1 | 4 | 1 | -23
CC1(C)NC(=O)N(CC(=O)N2CCN(S(=O)(=O)c3ccccc3C(F)(F)F)CC2)C1=O | 4 | 3 | 2
Cc1nn(-c2ccccc2)c2nc(C(F)F)cc(C(F)F)c12 | 15 | 3 | -15
Cc1cccc(OCC(=O)NNC(=O)c2ccccc2OCc2c(C)noc2C)c1 | 1 | 2 | -31
O=C(O)c1ccc(S(=O)(=O)c2ccccc2)s1 | -1 | 1 | -10
CCN(CC(=O)Nc1c(F)cccc1F)C(=O)CCCOc1ccccc1 | 0 | -5 | -12
O=C1[C@H]2[C@@H](c3ccccc3)N[C@]3(CCCN(Cc4ccc(C(F)(F)F)cc4)C3=O)[C@H]2C(=O)N1Cc1ccccc1 | 5 | -3 | -18
Cc1cc(C)n2c(SC(C)C(=O)NC3(C#N)CCCCC3)nnc2n1 (stereo not given) | -3 | 3 | -19
CCOc1ccc(C2CC=C(C(C)=O)CN2S(=O)(=O)c2ccc(C)cc2)cc1 (stereo not given) | 2 | -6 | -13
O=C(c1ccccc1)N1CCCCC1 | -3 | 1 | -14
C/C(=N\Nc1ccc(Cl)nn1)c1ccccc1O | -5 | 1 | -15
COc1ccc(S(=O)(=O)N2CCN(C(=O)c3cc(C)on3)CC2)cc1 | 2 | 3 | -6
Cc1ccc(C(=O)Nc2ccccc2N2CCCCC2)cc1S(=O)(=O)N1CCOCC1 | 1 | -8 | -8
CN(CC(=O)Nc1cccc(F)c1)C(=O)CN1C(=O)C2CCCCC2C1=O (stereo not given) | -1 | -3 | -1
CC(C)=N/N=C1/NC(=O)C(c2ccccc2)S1 (stereo not given) | 1 | 2 | -25
COc1ccc(CCNC(=O)CSc2nc3ccsc3c(=O)n2Cc2ccccn2)cc1OC | 0 | 0 | -13
N#Cc1ccccc1S(=O)(=O)N1CCN(C(=O)CN2CCCSc3ccccc32)CC1 | -5 | -1 | 14
Cc1ccc(N2CC(C(=O)Nc3cccc(C(=O)NC4CC4)c3)CC2=O)cc1 (stereo not given) | -4 | -2 | -6
CC(=O)Nc1ccc(C=NNC(=O)C2CC2)cc1 | -1 | -2 | -13
CC(C)CC1C(=O)N(Cc2cn(Cc3ccco3)nn2)CCS(=O)(=O)N1Cc1ccc(-c2ccccc2)cc1 (stereo not given) | -2 | -7 | -3
COc1cccc(NC(=O)c2ccccc2OCc2c(C)noc2C)c1 | -8 | 1 | -4
CC(C)C(NC(=O)c1ccc(C(C)(C)C)cc1)C(=O)NCc1ccccn1 (stereo not given) | 0 | 0 | -18
CCOC(=O)C1=CCN(S(=O)(=O)c2ccccc2Br)C1c1ccc(Cl)c(Cl)c1 (stereo not given) | 1 | -1 | -7
CC(O)C1CCC2C3CCC4CC(O)CCC4(C)C3C(=O)CC12C (stereo not given) | -1 | -2 | 2
COc1ccc(CCC(=O)Nc2cccc(S(=O)(=O)N3CCCC3)c2)cc1OC | 6 | -6 | 0
C[C@@H]1CN([C@H](C)CO)C(=O)CCCn2nncc2CO[C@H]1CN(C)C(=O)C1CCCCC1 | -1 | 4 | -15&11
O=C(NCc1ccccc1CN1CCCCC1)c1ccc(Cl)cc1N1CCCC1=O | -4 | 2 | -8
Cc1noc(C)c1S(=O)(=O)N(C)C[C@H]1OCc2cnnn2CCCC(=O)N([C@@H](C)CO)C[C@H]1C | 0 | 2 | -10&7
CCOc1ccc(OCC(=O)OCC(=O)N2CCN(S(=O)(=O)c3ccc(C)cc3C)CC2)cc1 | -2 | -1 | -23

Part of the list above, showing only UUG fidelity:
compound | UUG fidelity
CC(C)C(NC(=O)c1ccc(C(C)(C)C)cc1)C(=O)NCc1ccccn1 (stereo not given) | -18
CCOC(=O)C1=CCN(S(=O)(=O)c2ccccc2Br)C1c1ccc(Cl)c(Cl)c1 (stereo not given) | -7
CC(O)C1CCC2C3CCC4CC(O)CCC4(C)C3C(=O)CC12C (stereo not given) | 2

Additional records follow:
SMILES | MT1-MMP act inh | MT1-MMP act inh RFP | UUG fidelity
O=S(Cc1ccccc1)Cc1ccccc1 | 3 | 3 | -23
COC(=O)C(C(=O)OC)[C@@H]1C=C[C@H](C[N+](=O)[O-])N(C(C)=O)C1 | 1 | 1 | -5
COc1ccc(OCC(=O)Nc2ccccc2C(=O)NC2CC2)cc1 | 2 | 0 | -9
COc1ccc(OC)c(/C=C/C(=O)OCC(=O)N2CCCC2)c1 | 0 | -2 | -6
Cc1nc2cc(C)c(C)cc2o1 | 2 | 3 | -15
Cc1cc(C(=O)N2CCc3ccccc3C2)c(C)o1 | -3 | 2 | 5
O=c1cc2c(c(-c3ccccc3)n1Cc1ccccc1)[C@H](CCO)NC2 | 2 | 5 | -11
O=C(CCNS(=O)(=O)c1cccc(Cl)c1)OCC(=O)N1CCN(C(=O)c2ccco2)CC1 | 2 | 2 | -14
O=C(c1cccc(Cl)c1)N1CCN(S(=O)(=O)c2ccc(Cl)s2)CC1 | -5 | -4 | 2
Cc1ccc(NC(=O)COC(=O)Cn2c(C)csc2=O)cc1S(=O)(=O)N1CCOCC1 | 6 | 4 | -7
O=C(OCC(=O)N1CCN(C(=O)c2ccco2)CC1)c1cncc(Br)c1 | -2 | 3 | -1
O=S(=O)(c1ccc2c(c1)CCCN2)N1CCCC1 | 3 | -1 | -10
COc1cccc(NC(=O)Nc2nnc([C@H]3C[C@H](O)[C@@H](CO)O3)s2)c1 | -7 | -5 | -7
O=C(COC(=O)C1=NN(c2ccccc2)C(=O)CC1)NCc1ccccc1Cl | 3 | 2 | 5
O=C(COC(=O)C1=COCCO1)Nc1ccc([N+](=O)[O-])cc1C(F)(F)F | 0 | 2 | -20
O=C(Cc1ccc(S(=O)(=O)N2CCOCC2)s1)N1CCN(S(=O)(=O)c2ccccc2F)CC1 | -2 | 0 | -22
O=C(COC(=O)Cc1ccccc1[N+](=O)[O-])NNC(=O)c1ccc([N+](=O)[O-])cc1 | 1 | 3 | 5
Cn1cc(-c2coc3c(C(=O)NCc4cccs4)cccc23)cn1 | -1 | -3 | -5
CC1=CC(=O)CC(C)(C)[C@@]1(O)/C=C/[C@@H](C)O[C@@H]1O[C@H](CO)[C@@H](O)[C@H](O)[C@H]1O | 3 | 7 | -19
O=C(OCC(=O)N1CCN(S(=O)(=O)c2ccc(Cl)cc2)CC1)C1CC1 | -2 | 0 | -1
CCOC(=O)C1(C)CCN1C(=O)c1cc(OC)ccc1Br (stereo not given) | 0 | -1 | -17
O=c1oc(C2(O)CCCCC2)cc2ccccc12 | 2 | 4 | -19
COC(=O)[C@]1(C)N[C@H](CN(C)S(=O)(=O)c2ccc(F)cc2)[C@@H]2C(=O)N(C)C(=O)[C@@H]21 | 4 | 9 | -6
CN(C)c1cccc(C(=O)OCC(=O)c2ccc[nH]2)c1 | 0 | 2 | -5

An excerpt of these results, as a markdown table:
| structure | MT1-MMP act inh | MT1-MMP act inh RFP | UUG fidelity |
| --- | --- | --- | --- |
| O=C(COC(=O)C1=COCCO1)Nc1ccc([N+](=O)[O-])cc1C(F)(F)F | 0 | 2 | -20 |
| O=C(Cc1ccc(S(=O)(=O)N2CCOCC2)s1)N1CCN(S(=O)(=O)c2ccccc2F)CC1 | -2 | 0 | -22 |
| O=C(COC(=O)Cc1ccccc1[N+](=O)[O-])NNC(=O)c1ccc([N+](=O)[O-])cc1 | 1 | 3 | 5 |
| Cn1cc(-c2coc3c(C(=O)NCc4cccs4)cccc23)cn1 | -1 | -3 | -5 |
| CC1=CC(=O)CC(C)(C)[C@@]1(O)/C=C/[C@@H](C)O[C@@H]1O[C@H](CO)[C@@H](O)[C@H](O)[C@H]1O | 3 | 7 | -19 |
| O=C(OCC(=O)N1CCN(S(=O)(=O)c2ccc(Cl)cc2)CC1)C1CC1 | -2 | 0 | -1 |
| CCOC(=O)C1(C)CCN1C(=O)c1cc(OC)ccc1Br (stereo not given) | 0 | -1 | -17 |

(cont.)
SMILES | MT1-MMP act inh | MT1-MMP act inh RFP | UUG fidelity
COc1cc2c(cc1CNC[C@H]1O[C@@H](n3cnc4c(N)ncnc43)[C@H](O)[C@@H]1O)OCO2 | 1 | 5 | 0
Cc1cc(S(=O)(=O)Nc2ccc(C(=O)NCCN3CCOCC3)cc2)ccc1F | -5 | 3 | -11
CCOc1ccccc1NC(=O)C1CCCCN1S(=O)(=O)c1ccccc1 (stereo not given) | -1 | -4 | 1
Nc1ccn([C@@H]2O[C@H](CNC(=O)[C@@H](N)CSCc3ccccc3)[C@@H](O)[C@H]2O)c(=O)n1 | 6 | 8 | -15
C[C@H](NC(=O)c1[nH]cnc1C(=O)N[C@@H](C)CO)c1ccccc1 | 3 | 0 | -3
CCN(CC(=O)NCc1cccs1)C(=O)COc1ccc(C(N)=O)cc1 | -1 | 3 | -1
O=C(CCC(=O)N1CCN(S(=O)(=O)c2ccc(Cl)cc2)CC1)NCc1cccc(C(F)(F)F)c1 | -7 | -20 | -1
OC1COC(c2ccccc2)OC1C1OC(c2ccccc2)OCC1O (stereo not given) | 5 | 7 | -23
CC(C)=C[C@H]1C[C@H](C)[C@H]2CC[C@H](C)c3c(O[C@@H]4O[C@@H](C)[C@@H](O)[C@@H](O)[C@@H]4O)c(O)c(C)c1c32 | 0 | -2 | 7
CCCCC(c1nc2ccccc2[nH]1)n1c(-c2ccccc2)nc2cc(C)c(C)cc21 (stereo not given) | 6 | 1 | -5
Cc1ccc(SCC(=O)OCC(=O)NC(C)c2ccc(F)cc2)cc1 (stereo not given) | -2 | -1 | 2
O=C(COc1ccc(Br)cc1)Nc1ccc(N2CCOCC2)cc1N1CCOCC1 | -4 | -3 | -13
COc1cc(NC(=O)C2CC(=O)N(Cc3ccco3)C2)c(OC)cc1Cl (stereo not given) | -3 | -1 | 11
Cc1ccc(S(=O)(=O)N2C[C@H]3C(=O)C[C@@H](c4ccccc4)N(S(C)(=O)=O)[C@H]3C[C@H]2c2ccccc2)cc1 | 1 | -6 | 0
Cc1ccc(C)c(S(=O)(=O)N2CCN(C(=O)CCC(=O)NCc3ccc(Cl)cc3Cl)CC2)c1 | 10 | -4 | -1
O=C(NCC(c1ccco1)N1CCCC1)c1cc(S(=O)(=O)N2CCOCC2)ccc1Cl (stereo not given) | -1 | 3 | 1

Sorted by formula weight (lowest first): some entries from above.
SMILES | MT1-MMP act inh | MT1-MMP act inh RFP | UUG fidelity
Cc1ccc(SCC(=O)OCC(=O)NC(C)c2ccc(F)cc2)cc1 (stereo not given) | -2 | -1 | 2
COc1cc(NC(=O)C2CC(=O)N(Cc3ccco3)C2)c(OC)cc1Cl (stereo not given) | -3 | -1 | 11
O=C(NCC(c1ccco1)N1CCCC1)c1cc(S(=O)(=O)N2CCOCC2)ccc1Cl (stereo not given) | -1 | 3 | 1

Not all compounds are listed; the hit share may differ from the screen's.
